NPYLR7 agonist: agonists of mosquito NPYLR7 receptor, primary screen, cell-based, Aedes aegypti, calcium fluorescence, mosquito biting behavior. 270,000 compounds, 0.15% hits. HEK293T NPYLR7/Galpha15, GCaMP6s calcium fluorescence. activation, % at 10 µM; in the data active = activation above about 40%;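 note: 0% = vehicle and 100% = reference agonist at the receptor; some compounds past the cut are filed as inactive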
NPYLR7 agonist max-min: further read-out of NPYLR7 agonist, marked with its call; activation, %; measured here: Max-Min RFU normalised activation; some inactives read as strong as hits;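 span of the calcium signal over five minutes; 0% = vehicle and 100% = native peptide agonist; compound fluorescence can raise it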
An asterisk follows results filed as active; & = joins results of further samples.

The first 20 records, ahead of the listing:
SMILES	NPYLR7 agonist	NPYLR7 agonist max-min
CCc1nc(CSc2nc3ccccc3c(=O)n2C(C)CC)cs1 (centres undefined)	-5	-7
O=C(Cn1ccccc1=O)Nc1ccccc1-c1ccccc1	-19	-24
CN1CCN2CCN(C(=O)c3n[nH]c(=O)c4ccccc34)CC2C1=O (centres undefined)	5	2
O=C(Nc1ccccc1Br)c1ccc(OC(F)F)cc1	1	0
N#Cc1ccc(C(=O)N2CCOC(Cc3ccccc3)C2)c(F)c1 (centres undefined)	28	18
Fc1ccc(C2CC(c3ccc4c(c3)OCO4)Nc3nnnn32)cc1 (centres undefined)	6	5
C#CCOCC(O)CN(CCOC)Cc1c(C)nn(-c2ccc(Cl)cc2)c1Oc1cccc(F)c1 (centres undefined)	5	9
CCCCOc1cc2nc3c4ccccc4n(CCC(C)C)c3nc2cc1OCCCC	3	1
COc1cccc(Cn2c(=O)c(C(=O)N3CCCC3)nn(-c3ccccc3F)c2=O)c1	11	14
C=CCNC(=O)c1cc(Cl)ccc1[N+](=O)[O-]	6	15
CCOc1ccc2nc(NC(=O)CCn3c(=O)oc4ccc(Cl)cc43)sc2c1	6	10
C=CCn1c(C)c(C)c(S(=O)(=O)c2ccccc2)c1NC(C)=O	0	0
O=C(C=Cc1ccc2c(c1)OCO2)NC1=NCCS1	3	4
O=C(c1cccc(F)c1)N1CCCN(c2nc(C3CCOCC3)nc3c2cnn3-c2ccccc2)CC1	9	12
O=C(c1cc(F)ccc1Cl)N1CCN(c2nccc(-c3ccc4c(c3)OCO4)n2)CC1	6	4
O=C(Cn1cc(C(=O)c2cccs2)c2ccccc21)NC1CCCC1	-2	-8
O=C(CSc1nc(=O)n(Cc2ccncc2)c2c1CCCC2)Nc1ccccc1	21	9
CNc1nc2cnc(-c3cccc4ccccc34)cc2n1-c1ccccc1	12	-2
CCOc1ncccc1NC(=O)Cc1ccccc1F	0	-2
CCC(Sc1ncc(S(=O)(=O)c2ccc(C)cc2)c(=O)[nH]1)C(=O)Nc1cc(Cl)ccc1C (centres undefined)	0	0

This part in full, repeating the preview:
SMILES	NPYLR7 agonist	NPYLR7 agonist max-min
CCc1nc(CSc2nc3ccccc3c(=O)n2C(C)CC)cs1 (centres undefined)	-5	-7
O=C(Cn1ccccc1=O)Nc1ccccc1-c1ccccc1	-19	-24
CN1CCN2CCN(C(=O)c3n[nH]c(=O)c4ccccc34)CC2C1=O (centres undefined)	5	2
O=C(Nc1ccccc1Br)c1ccc(OC(F)F)cc1	1	0
N#Cc1ccc(C(=O)N2CCOC(Cc3ccccc3)C2)c(F)c1 (centres undefined)	28	18
Fc1ccc(C2CC(c3ccc4c(c3)OCO4)Nc3nnnn32)cc1 (centres undefined)	6	5
C#CCOCC(O)CN(CCOC)Cc1c(C)nn(-c2ccc(Cl)cc2)c1Oc1cccc(F)c1 (centres undefined)	5	9
CCCCOc1cc2nc3c4ccccc4n(CCC(C)C)c3nc2cc1OCCCC	3	1
COc1cccc(Cn2c(=O)c(C(=O)N3CCCC3)nn(-c3ccccc3F)c2=O)c1	11	14
C=CCNC(=O)c1cc(Cl)ccc1[N+](=O)[O-]	6	15
CCOc1ccc2nc(NC(=O)CCn3c(=O)oc4ccc(Cl)cc43)sc2c1	6	10
C=CCn1c(C)c(C)c(S(=O)(=O)c2ccccc2)c1NC(C)=O	0	0
O=C(C=Cc1ccc2c(c1)OCO2)NC1=NCCS1	3	4
O=C(c1cccc(F)c1)N1CCCN(c2nc(C3CCOCC3)nc3c2cnn3-c2ccccc2)CC1	9	12
O=C(c1cc(F)ccc1Cl)N1CCN(c2nccc(-c3ccc4c(c3)OCO4)n2)CC1	6	4
O=C(Cn1cc(C(=O)c2cccs2)c2ccccc21)NC1CCCC1	-2	-8
O=C(CSc1nc(=O)n(Cc2ccncc2)c2c1CCCC2)Nc1ccccc1	21	9
CNc1nc2cnc(-c3cccc4ccccc34)cc2n1-c1ccccc1	12	-2
CCOc1ncccc1NC(=O)Cc1ccccc1F	0	-2
CCC(Sc1ncc(S(=O)(=O)c2ccc(C)cc2)c(=O)[nH]1)C(=O)Nc1cc(Cl)ccc1C (centres undefined)	0	0
CO[C@H]1[C@H](NC(=O)CSC)c2ccccc2C12CCN(Cc1cn[nH]c1-c1cccc(F)c1)CC2	12	3
Cc1cccn2c(=O)cc(OCC(=O)NCc3ccccc3Cl)nc12	-6	-4
COCc1nnc(C(=O)N2CC[C@@H](c3sccc3C)[C@H](O)C2)o1	6	3
Cc1ccc(C2=NN(C(=O)CN3CCN(c4ccccc4F)CC3)C(c3ccccc3Cl)C2)cc1 (centres undefined)	-9	-7
COc1ccc2c(c1)CCc1cc(CCC(=O)N3CCc4ccccc4C3)n(CCc3cccc(F)c3)c1-2	9	9
O=C(c1scc2c1OCCO2)N1CCc2[nH]nc(-c3ccccc3)c2C1	17	5
CSCc1ccc(C(=O)NCc2ccccc2F)o1	2	-1
CN(C)c1nc2c(c(N(C)C)n1)CCN(C(=O)CNS(C)(=O)=O)C2	22	6
CCOC(=O)c1c(NC(=O)c2cccs2)c(-c2cccc(F)c2)cn1C	15	9
Cn1c(=O)c2cc(C(=O)NCc3ccccc3Cl)n(Cc3ccccc3)c2n(C)c1=O	5	4
O=C(CSc1nc2c([nH]c3ccccc32)c(=O)n1-c1cccc(Cl)c1)NCC1CCCO1 (centres undefined)	3	30
Cc1cccc2[nH]c(CN(C)C(=O)c3ccc(CSc4ncccn4)o3)nc12	5	1
Cc1cccc(C(=O)Nc2cc(C3CC3)nn2-c2nc(C)c(C)c(=O)[nH]2)c1	15	15
Cc1cccnc1NC(=O)CCn1nc(-c2cccs2)oc1=O	-2	-1
CCc1cc(=O)c2c(C)nn(-c3cc(C)cc(C)c3)c2[nH]1	9	5
Cn1cnc2c1c(=O)n(Cc1nc(N)nc(N3CCOCC3)n1)c(=O)n2C	4	3
O=C(CSc1nnc(-c2cccs2)n1C1CC1)NNC(=O)c1cccc([N+](=O)[O-])c1	-6	-9
COc1cccc(CN2CCC(O)(c3ccccc3C)C2)c1O (centres undefined)	-6	-6
COc1ccc(NC(=O)CN2CN(c3ccccc3)C3(CCN(C(=O)c4ccccc4Br)CC3)C2=O)cc1	-3	3
CC(C)n1cc(C(=O)N2CCN(C(=O)Cc3cccs3)CC2)c2nn(-c3ccccc3)c(=O)c-2c1	-6	-9
c1ccc(COc2ccc3c(C4CC4)noc3n2)cc1	23	14
CCCn1ccnc1SCC(=O)Nc1ccc(N(C)C)cc1	6	1
Cc1ccc2oc(C(=O)NC3C(=O)Nc4cccc(C)c43)cc2c1 (centres undefined)	0	-8
CSCCCNC(=O)c1cc(N2CCOCC2)nc2ccccc12	24	24
CCOCCSc1nnc(C)c2cnn(-c3ccccc3OC)c12	-15	-21
Cc1cn(C)nc1C(=O)N=c1sc2ccccc2n1C	1	5
CCN(CC)CCCCCCCCOC(=O)c1cc(OC)c(OC)c(OC)c1	5	-9
Cc1c(C(=S)Nc2ccccc2)cnn1-c1ccc([N+](=O)[O-])cc1	-2	-4

Compound profiles, from the list above. Order of values: NPYLR7 agonist	NPYLR7 agonist max-min
Profile of CSCCCNC(=O)c1cc(N2CCOCC2)nc2ccccc12 → 24	24
Profile of COCc1nnc(C(=O)N2CC[C@@H](c3sccc3C)[C@H](O)C2)o1 → 6	3

Other entries follow:
SMILES	NPYLR7 agonist	NPYLR7 agonist max-min
O=C(c1ccc(-n2cnnn2)cc1)N1CCC2(CCCNC2)C1 (centres undefined)	-1	-14
Cc1nn(-c2ccc(F)cc2)c2nc(Cc3ccccc3)nc(N3CCN(C(=O)Nc4ccc(Cl)cc4)CC3)c12	-5	8
CN(Cc1cccc2cnccc12)c1ccc(-c2nccn2C)nn1	-2	-3
N[C@@H]1c2ccccc2C2(CCN(C(=O)Cc3c[nH]c4ccccc34)CC2)[C@H]1O	10	8
O=C(Nc1ccc(F)c(Cl)c1)N1CCN(c2cc(-n3ccnc3)ncn2)CC1	-14	-20
Nc1ccc(-c2ccc(F)c(CO)c2)cn1	-2	-3
COc1ccc(CCN(C)C2CCCN(C(=O)c3cc(CC(C)C)[nH]n3)C2)cc1OC (centres undefined)	-3	-4
CCOC(=O)CCCN(CCOC)CC(=O)N(CCc1ccccc1)Cc1ccc(C)o1	1	4
CCOc1ccc(-n2nnnc2CN2CCN(C(=O)C(CC)c3ccccc3)CC2)cc1 (centres undefined)	-3	-3
Cc1cccc(COC2CCCN(C(=O)c3ccc(C(F)(F)F)cc3)C2)c1 (centres undefined)	-8	-3
CCCNC(=O)c1ccc(Cn2nc(C)c([N+](=O)[O-])c2C)cc1	0	8
CC(C)C(=O)N1CCC1(C)C(=O)Nc1ccc2cn[nH]c2c1 (centres undefined)	4	3
Cc1ccc(Nc2nc(Nc3ccc(F)cc3)nc3nccnc23)c(C)c1	3	13
C=C(C)Cn1c(N2CCNCC2)nc2c1c(=O)[nH]c(=O)n2C	-2	-3
OCC1(CC2CCCCO2)CCN(Cc2ccc3c(c2)Cc2ccccc2-3)CC1 (centres undefined)	5	2
C[C@H](C(=O)Nc1ccc2c(c1)OCO2)N1Cc2ccc(N3CCOCC3)nc2C1=O	-3	-2
CC(=O)n1c2c(c3ccccc31)OC(=N)C(C#N)C2c1ccncc1 (centres undefined)	-4	-10
COc1ccc(CN2CCNC(=O)C2CC(=O)NCCc2ccccc2OC)c(F)c1 (centres undefined)	3	-1
O=C(Nc1cccc(C(=O)N2CCN(CC3CCCO3)CC2)c1)c1cc(=O)[nH]c2ccccc12 (centres undefined)	3	2
Cc1ccc(NCC(=O)N2CCN(S(=O)(=O)c3ccc4c(c3)CCC4)CC2)c(F)c1	0	1
COc1cc(/C=C2\SC(=Nc3cc(C)cc(C)c3)NC2=O)cc(Br)c1O	6	4
Cc1ccsc1C=C1N=C(c2ccccc2F)OC1=O	11	13
CCCC(Sc1nnc(C)n1-c1cccc(C)c1)C(=O)OCC (centres undefined)	-4	2
O=C(C1CCC1)N1CCCC(OCc2ccc(Br)cc2)C1 (centres undefined)	-2	4
Cc1c(F)cccc1N1C(=O)CSC1c1cccc(NC(=O)C(Cl)c2ccccc2)c1 (centres undefined)	-11	4
CCOc1ccc(-c2nc3ccc(Cl)cn3c2NC(C)(C)CC(C)(C)C)cc1	-7&35	-6&32
CSc1nc2c(-c3ccccc3)c[nH]c2c(=O)n1-c1ccccc1	-5	-10
Cc1ccc(-n2c(=O)[nH]c3c(C(=O)NCCC4=CCCCC4)cn(C)c3c2=O)cc1	4	0
Oc1oc(-c2ccccc2)nc1C=Nc1ccccn1	3	1
O=C(NC1(C(=O)NCC2CC2)CCCC1)C1COc2ccccc2C1 (centres undefined)	1	17
COCCn1cncc1Cn1ccnc1-c1ccc2nonc2c1	10	8
CCn1c(C)c(C(=O)CN(C2CCCCC2)S(=O)(=O)c2cccc3ccccc23)c(C)c1C(=O)OC	-10	-1
Cc1ccn2c(NC(=O)C3CCCc4[nH]ncc43)nnc2c1 (centres undefined)	6	2
O=C(CCN1CCCO1)NCc1ccc2sccc2c1	8	4
COc1ccc(C2=N/C(=C\C=C\c3ccccc3OC)C(=O)O2)c(Br)c1	-1	-7
CC(C)(C)C1CCc2c(sc(NC(=O)Cn3cnc([N+](=O)[O-])n3)c2C(N)=O)C1 (centres undefined)	-10	-18
O=C(O)c1ccc(Cn2cc(Br)c([N+](=O)[O-])n2)o1	0&-4	0&-6
COc1ccc([N+](=O)[O-])cc1NC(=O)C1CCCC1	-1	-7
Cc1nnc2ccc(N3CCN(C(=O)COc4ccc(F)cc4F)CC3)nn12	3	9
CCN(C(=O)c1ccccc1N1CCC(NC(=O)c2ccc(OC)cc2)CC1)C1CCCCC1	24	19
CC(NC(=O)c1cc(NC(=O)c2ccc(Cl)cc2)ccc1N1CCCC1)c1ccccc1 (centres undefined)	-12	-4
Cn1c(=O)cc(C(=O)N2CCOC(C(F)(F)F)C2)c2ccccc21 (centres undefined)	26	17
O=S(=O)(Oc1ccc(Cl)c2cccnc12)N1CCOCC1	-7	-8
Cc1ccc2nc(-c3ccccc3)cc(C(=O)N3CCOCC3)c2c1	8	12
Cc1ccc(SCc2cnc(Cl)s2)cc1C	0	-1
O=C1c2ccccc2C(=O)N1N1C(=O)c2cccc3c([N+](=O)[O-])ccc(c23)C1=O	6	5
Cc1cc(C)nc(NN=Cc2ccc(C)s2)n1	3	2
Cc1ccc(S(=O)(=O)N2CCCC(OCc3ccc(F)cc3)C2)cc1 (centres undefined)	9	5
Cc1[nH]c(=O)sc1S(=O)(=O)N1CCCC1C(=O)NCc1ccsc1 (centres undefined)	-8	-10
Nc1ccc(F)cc1-c1nc(CCOc2ccccc2)no1	13	10
COc1cc2c(cc1OC)CN(S(=O)(=O)c1ccc(OC)c(N3CCN(C(=O)c4cc5ccccc5s4)CC3)c1)CC2	17	8
CC1CC1CNC(=O)C1CCCCN1Cc1ccc(F)cc1 (centres undefined)	2	1
CC(C)C(NC(=O)c1ccccc1Cl)C(=O)Nc1cnc2ccccc2c1 (centres undefined)	7	3
COc1ccc2c(c1)CCCN2C(=O)C1CCN(S(=O)(=O)c2ccccc2)CC1	10	10
OC(c1cn2cc(-c3ccc(F)cc3)nc2s1)(C(F)(F)F)C(F)(F)F	-3	-9
O=C1NC(=O)/C(=C\c2ccc(F)cc2F)S1	10	5
CCOCCCN1COc2ccc3c(c2C1)O/C(=C\c1cccc(OC)c1OC)C3=O	22	18
CNC(=O)COC(=O)c1ccc(Br)o1	3	1
CCCc1nc(C(=O)NCCC2CN(C)CCO2)cs1 (centres undefined)	6	5
O=C(c1cccc(=O)[nH]1)N(Cc1ccccn1)CC1CCCO1 (centres undefined)	19	5
Additional structures:
SMILES	NPYLR7 agonist	NPYLR7 agonist max-min
CCNCC(=O)Nc1cc(C(C)(C)C)nn1-c1ccc(Cl)c(Cl)c1	19	21
O=C(NCCSCc1c(Cl)cccc1Cl)c1cncn1-c1ccc(-c2cc(C(F)(F)F)cc(C(F)(F)F)c2)cc1	24	4
C=CCCC(O)CN(CCOC)Cc1ccc(OC)c(OC)c1 (centres undefined)	48	36
N#Cc1nc(-c2ccc(COc3ccccc3)o2)oc1NCCCN1CCOCC1	-1	23
CN(C(=O)c1c(O)cccc1O)C1CCCc2ccccc21 (centres undefined)	-3	-7
Cn1c(-c2ccccc2)nnc1C(C#N)C(=O)C1CC=CCC1 (centres undefined)	5	3

This is a subset; the hit share may differ from the screen's.
